# Assay outcomes: PubChem, ICCB-Longwood Screening Facility, Harvard Medical School
# CapD inh: CapD enzyme inhibition; purified CapD enzyme, fluorescence intensity read-out; stronger effect = lower value; some hits fall short of the stated cut; z-score (no concentration beside the values); hit rate 0.23% among 140,000; AID 492967;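 active = z-score under -4 in either of two replicates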;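 note: stock transfer was 100 nL into about 40 µL; score is relative to mean and spread of the plate; one replicate is shown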
# AID504770: E. coli YBA685 growth inhibition, screen for V. cholerae RctB inhibitors; E. coli YBA685 rctB-dependent plasmid, OD600 growth, 3 h; stronger effect = lower value; z-score (no concentration beside the values); hit rate 0.27% among 130,000; AID 504770;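 active = z-score under -2 on both plates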;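 note: wells of about 30 µL received 100 nL stock; score is relative to mean and SD of the test wells; the first replicate is given; strong numbers were not always called active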
# * = called active by the depositor; x = no result given; & = joins results of further samples. These rows are one share of the data; rates above refer to the full screens.
SMILES,CapD inh,AID504770
O=C(Cc1n[nH]c(=O)c2ccccc12)Nc1ccccc1OC(F)F,x,-0.7
N#CC1=C(SCC(=O)Nc2ccc(Cl)c(Cl)c2)NC(=O)CC1c1cccs1 (configuration not stated),0.2,x
Oc1ccccc1CNCC12CC3CC(CC(C3)C1)C2,-0.54,-1.2
O=C(OCc1ccc([N+](=O)[O-])cc1)C1CCCN1C(=O)OCC1CCN(O)CC1 (configuration not stated),-0.81,x
CSC1=N/C(=C\c2ccc(Cl)cc2)C(=O)N1N(C)C,-2,0.65
COC(=O)c1ccccc1NC(=S)Nc1ccccn1,0.18,-0.2
Cc1cc(C(=O)CN2C(=O)NCC(C)C2=O)c(C)n1C (configuration not stated),x,-0.5
COC(=O)C1Cc2ccccc2CN1Cn1nc2sc3ccccc3n2c1=S (configuration not stated),x,-0.35
Cc1cccc(CN2CCN(CC(=O)NCc3ccc4c(c3)OCO4)C2=O)c1,-0.03,-1.1
CC(C)C(NC(N)=O)C(=O)NCc1ccc(Cl)cc1Cl (configuration not stated),x,-0.6
C=CCOc1ccc(CN2CCN(C(=O)C(CCCCNC(=O)c3cccnc3)NC(=O)OC(C)(C)C)CC2)cc1 (configuration not stated),-0.69,x
COc1cc(C2C(C#N)=C(N)Oc3n[nH]c(-c4ccncc4)c32)ccc1OCC(N)=O (configuration not stated),0.27,x
COc1cc2c(cc1OC)C(C(=O)NC1CCCCC1)C(c1cccnc1)N(C)C2=O (configuration not stated),0.09,0.05
O=C(NNc1cc(Cl)ccc1Cl)C1CCCS1 (configuration not stated),0.47,-1.2
COc1ccc(OC)c(/C=C/C(=O)OC(C)C(=O)Nc2ccc(S(=O)(=O)N3CCOCC3)cc2)c1 (configuration not stated),x,-0.35
COc1cccc(C2C(C#N)=C(N)Oc3n[nH]c(C)c32)c1OCc1c(F)cccc1Cl (configuration not stated),-1,x
CCS(=O)(=O)c1ccc(O)c(NC(=O)c2ccncc2)c1,x,-0.25
Cc1ccc(Nc2cc(N3CCCCCC3)c3nonc3c2[N+](=O)[O-])cc1Cl,-0.065,x
CC1(C)C2CC=C(/C=N/O)C1C2 (configuration not stated),x,1.3
CN(C)Cc1c(O)[nH]c(=S)[nH]c1=O,0.24,0.35
CC1CCCCC1NC(=O)c1ccc2c(c1)[nH]c(=S)n1c3ccccc3nc21 (configuration not stated),-0.35,x
CCC(C)OC(=O)C1=C(C)NC(=O)NC1c1ccc(OC)c(OCc2ccccc2)c1 (configuration not stated),-0.23,x
CCOC(=O)CSc1nnc(NCc2ccccc2)s1,x,1.1
CCOC(=O)C1C(=O)NC2(C)Oc3ccccc3C1C2C (configuration not stated),-0.23&0.29,-0.75&-1.2
CCC(C)NC(=O)c1ccc2c(Cl)c3c(nc2c1)CCC3 (configuration not stated),-0.035,0.35

# Copied from the list.
# Entry for CC1(C)C2CC=C(/C=N/O)C1C2 (configuration not stated) in AID504770: 1.3
# Entry for COC(=O)C1Cc2ccccc2CN1Cn1nc2sc3ccccc3n2c1=S (configuration not stated) in AID504770: -0.35

# Other entries follow.
SMILES,CapD inh,AID504770
CC[n+]1c(C)ccc2ccccc21,19,x
O=C(OCc1csc(-c2ccccc2)n1)c1cccs1,x,-0.3
O=C(Nc1cc(Cl)ccc1Cl)C1COc2ccccc2O1 (configuration not stated),-0.98,0.9
FC(F)(F)c1cccc(NC(=S)Nc2ccccn2)c1,-0.55,x
CC1(C)CC(Nc2ncnc3sccc23)CC(C)(C)N1,x,-0.2
COC(=O)c1cc2ccc(OC)c(OC)c2c(=O)s1,-0.41,-4.6
Cc1nnc(-n2cnc3ccccc32)c2ccccc12,0.14,-0.75
CCN(CC)c1ccc2cc(C(=O)Nc3cccc(C(F)(F)F)c3)c(=O)oc2c1,-0.46,x
O=S(=O)(NCCc1ccncc1)c1cc(Cl)cc(Cl)c1,-0.3,x
COc1ccc(N(Cc2ccccc2)C(=O)c2ccc(Br)cc2)cc1,0.36,x
COc1ccc([N+](=O)[O-])cc1C1=N/C(=C/c2cc(OC)c(OC)c(OC)c2)C(=O)O1,0.02,x
Cc1ccc(CSCCC(=O)N2CCN(c3cccc(C)c3C)CC2)cc1,0.64,0.85
Nc1nc(-c2cc3ccccc3oc2=O)nc2c1c(=O)oc1ccccc12,x,2.2
FC(F)(F)c1cccc(C(c2nnnn2Cc2ccccc2)N(Cc2ccco2)CC2CCCO2)c1 (configuration not stated),x,2.5
Clc1cccc(Cl)c1Cn1c(/C=C/c2ccccc2)nc2ccccc21,11,x
O=C(Cc1c(Sc2ccccc2)c2ccccc2n1Cc1ccccc1)Nc1ccccc1C(F)(F)F,-0.51,x
CCCCSc1nnc(-c2cc3c(C(F)(F)F)nn(C)c3s2)n1C,0.98,x
N#CCN(CC#N)C(=O)c1cccc(Cl)c1,0.56,1
CN=C(C)c1c(O)c2ccccc2oc1=O,-0.15,-0.15
COCCN(Cc1ccccc1)C(=O)c1cnn(-c2ccccc2)n1,x,-0.5
N#Cc1ccc(COc2cnc3ccccc3n2)cc1,24,0.05
COc1ccc(CC(=O)Nc2c[nH]c(=O)[nH]c2=O)cc1OC,0.53,1.8
Cc1ccc2c(c1)-c1nc(SCc3cccc([N+](=O)[O-])c3)ncc1CS2,-0.24,x
COC(=O)c1sc(SC)c(-c2ccn(C(=O)c3ccc(Cl)cc3)n2)c1C,1.5,0.1
COc1ccc(CCNC(=O)CSc2nc3ccc(C)cc3[nH]2)cc1,0.17,-1.3
SMILES,CapD inh,AID504770
COc1ccc(N2C(N)=C(C#N)C(c3ccc(Br)cc3)C3=C2CCCC3=O)cc1 (configuration not stated),-0.005,x
CCOC(=O)c1nc[nH]c1C(=O)OCC,-0.01,-0.6
Cc1cc(C)c2c(CC(=O)N(CCC#N)Cc3cccnc3)coc2c1,0.23,-0.25
CC(NC(=O)c1ccccc1)C(=O)NC1=NCCS1 (configuration not stated),x,-0.15
CCOc1ccc2nc(NCCO)[nH]c2c1,-0.52,0
CCc1ccc2nc3nc(C)cc(C)c3c(N)c2c1,4.2,0.8
N#Cc1cnc2sc(-c3ncc(C(F)(F)F)cc3Cl)c(N)c2c1,0.48,x
NC(N)=NC(N)=Nc1ccc(Br)cc1,x,0.15
CC1CN(CC(O)COc2ccc(C(C)C)cc2)CC(C)O1 (configuration not stated),0.38,-0.85
Cc1nc2ncnn2c(C)c1CCC(=O)OCc1ccc(C#N)cc1,x,-0.85
CNC(=O)N1CCCC(Cn2cccc2)C1 (configuration not stated),0.15,-0.1
CC(=O)Nc1ccc(-n2c(C)ccc2-c2ccccc2)cc1,0.65,0.05
Cc1c(C)c(O)c(Cc2ccc3ccccc3n2)c(C)c1O,x,0
CCCCN(Cc1ccco1)C(=O)Cn1ncc2c1-c1cc(C)ccc1OC2,-0.18,-1.4
N#Cc1ccc2c(c1)nc1c3ccc4c5c(ccc(c(=O)n21)c53)C(=O)NC4=O,0.07,-0.6
CN(C)c1nc(N)c2c(N)nc3c(c2c1C#N)CC(=O)N3C(=O)NC12CC3CC(CC(C3)C1)C2,x,0.15
O=C(Nc1ccc(Cl)cc1Cl)c1cccnc1Sc1cccc(C(F)(F)F)c1,0.43,x
O=C(CC(=O)c1ccccc1)Nc1cccc(C(=O)O)c1,-0.12,-0.75
O=C(NCc1nc(-c2ccccc2)no1)C(c1ccccc1)c1ccccc1,-0.96,0.85
CCN(CCCNC(=O)c1ccc(Cn2c(=S)[nH]c3cc(C(=O)OC)ccc3c2=O)cc1)c1ccccc1,0.39,x
CCOc1ccc(-c2[nH]nc3c2C(c2ccc(F)cc2)C(C#N)=C(N)O3)c(OCC)c1 (configuration not stated),0.46,x
CCC(=O)NCc1ccc2[nH]c3c(c2c1)CCCC3,0.02,0.6
CCC(Sc1nc2cc(OC)c(OC)cc2c(=O)n1Cc1ccco1)C(=O)Nc1ccc(C)cc1 (configuration not stated),-0.55,2
CCOc1ccc(Nc2nc3cc(C)ccc3cc2C)cc1,0.05,-0.35
O=C(O)c1cccc(N2C(=O)/C(=C/c3ccc(-c4ccc(Br)cc4)o3)C=C2c2ccccc2)c1,-0.53,x
SMILES,CapD inh,AID504770
O=C(NN1C(=O)c2ccccc2NC1c1ccco1)c1ccc(Br)cc1 (configuration not stated),11,1.1
N#CC(C(=O)NCc1ccc2c(c1)OCO2)c1ccccc1 (configuration not stated),0.18,-0.9
COc1cc(OC)c(NC(=O)c2cc3c(CO)cnc(C)c3oc2=O)cc1Cl,-0.95,1.1
O=C(CSc1nnc(CCN2C(=O)c3cccc4cccc(c34)C2=O)n1-c1ccccc1)NCc1cccnc1,20,x
Cc1ccc(N2CCN(c3cnn(C45CC6CC(CC(CC(=O)O)(C6)C4)C5)c(=O)c3Cl)CC2)c(C)c1,-0.14,-1.9
Cc1nn(C)c(Oc2cccc(C(F)(F)F)c2)c1C(=O)Nc1ccc(F)cc1,-0.12,x
CCC(=O)N1CCc2cc(Br)cc(S(=O)(=O)C3(C(=O)OC)CC3)c21,-0.27,0
N#Cc1ccc(C(=O)N2CCCC2)cc1,-0.22,-0.15
CCOc1[nH]n(-c2ccccc2)c(=O)c1C=Nc1cc(Cl)cc(Cl)c1,-0.27,x
COc1ccc(CCN(C)CN2C(=O)C3CC=CCC3C2=O)cc1OC (configuration not stated),x,-1.4
Cc1nn(-c2ccc(F)cc2)c(Cl)c1/C=C/C(=O)N1CCN(CC2CCCO2)CC1 (configuration not stated),x,0.5
CSc1nc(-c2ccccc2)[nH]c1S(=O)(=O)c1ccccc1,-1.6,0.9
CN1CCN(CCCNS(=O)(=O)c2ccc(-c3cc(C(F)(F)F)no3)s2)CC1,-0.25,-0.1
Fc1ccc(C2CC(c3ccco3)=Nc3ccccc3S2)cc1 (configuration not stated),x,-0.2
O=c1[nH]c(=S)[nH]nc1Cc1ccc(Cl)c(Cl)c1,x,-0.4
CCOC(=O)C1=C(c2ccccc2)OC(N)=C(C#N)C1c1cccc(OC)c1 (configuration not stated),1.2,x
Cn1c(=O)c(-c2ccccc2)c(O)c2ccccc21,0.29,x
Cc1nnc(Nc2ccc3c(c2)OCO3)[nH]c1=O,0.32,-0.7
Cc1ccc(-n2nc(C)c3c(C)c(CCC(=O)NN4CCOCC4)c(C)nc32)cc1C,13,1.3
Cc1ccc(C(=O)/C=C2/NCCNC2=O)cc1,-1.7,-0.6
COc1cc(C=NNC(=O)c2ccccc2NC(=O)c2cccs2)cc(OC)c1O,0.05,x
COC(=O)c1c(NC(=O)COc2ccc(OC)cc2)sc2c1CCCC2,0.79,-0.75
O=[N+]([O-])c1ccc(C2CC(c3ccccc3)=Nc3ccccc3N2)cc1 (configuration not stated),-0.075,x
Cc1cc(C(=O)NNC(=O)c2cc(C)n(C)n2)n[nH]1,-1.2,x
COC(=O)Cc1c(C)n[nH]c1C,x,-0.25

# Sorted by molecular weight (rising): 15 of the compounds above.
SMILES,CapD inh,AID504770
CCc1ccc2nc3nc(C)cc(C)c3c(N)c2c1,4.2,0.8
CCC(=O)NCc1ccc2[nH]c3c(c2c1)CCCC3,0.02,0.6
Cc1nnc(-n2cnc3ccccc32)c2ccccc12,0.14,-0.75
Cc1cc(C(=O)CN2C(=O)NCC(C)C2=O)c(C)n1C (configuration not stated),x,-0.5
CC1(C)CC(Nc2ncnc3sccc23)CC(C)(C)N1,x,-0.2
O=C(NNc1cc(Cl)ccc1Cl)C1CCCS1 (configuration not stated),0.47,-1.2
FC(F)(F)c1cccc(NC(=S)Nc2ccccn2)c1,-0.55,x
CSc1nc(-c2ccccc2)[nH]c1S(=O)(=O)c1ccccc1,-1.6,0.9
CCCCSc1nnc(-c2cc3c(C(F)(F)F)nn(C)c3s2)n1C,0.98,x
Cc1nn(C)c(Oc2cccc(C(F)(F)F)c2)c1C(=O)Nc1ccc(F)cc1,-0.12,x
Cc1ccc(Nc2cc(N3CCCCCC3)c3nonc3c2[N+](=O)[O-])cc1Cl,-0.065,x
Cc1ccc(-n2nc(C)c3c(C)c(CCC(=O)NN4CCOCC4)c(C)nc32)cc1C,13,1.3
COc1cc2c(cc1OC)C(C(=O)NC1CCCCC1)C(c1cccnc1)N(C)C2=O (configuration not stated),0.09,0.05
CN(C)c1nc(N)c2c(N)nc3c(c2c1C#N)CC(=O)N3C(=O)NC12CC3CC(CC(C3)C1)C2,x,0.15
O=C(O)c1cccc(N2C(=O)/C(=C/c3ccc(-c4ccc(Br)cc4)o3)C=C2c2ccccc2)c1,-0.53,x

# Following part.
SMILES,CapD inh,AID504770
NNc1nc2c3c(ccc2s1)CCCC3,-0.19,0.3
CC12CN3CC(c4ccccc4)(CN(C1)C31CCCCC1)C2=O,0.39,-0.95
CCCCN(CCCC)CC(O)CN(c1ccc(C)cc1)S(=O)(=O)c1ccc(C)cc1 (configuration not stated),-0.49,x
O=C(NCc1nnc(SCC(=O)N2CCCCC2)o1)c1cccs1,-0.32,-0.6
Cn1nc(C(C)(C)C)c(NC(=O)c2cccnc2)c1C(C)(C)C,-0.13,-0.85
CC1CC(C)(C)N(C(=O)CN2C(=O)CCC2=O)c2ccccc21 (configuration not stated),0.33,x
CC(C)c1ccc2c(c1)C1(N=C(N)Nc3nc4ccccc4n31)C(=O)N2 (configuration not stated),x,0.05
COc1ccccc1NC(=O)CSc1ncnc2ccccc12,0.12,0
C=CCN1C(=O)/C(=C/c2c(NCC)nc3ccccn3c2=O)SC1=S,80,0.2
O=C1CCCN1C(=O)COc1ccc(Cl)c2ccccc12,x,0
O=S(=O)(c1ccc(Br)cc1OC(F)(F)F)N1CCN(CCc2ccccc2)CC1,-1,x
CC1(C)CC(=O)C(C(C2=C(O)CC(C)(C)CC2=O)c2cccc(Cl)c2Cl)C(=O)C1 (configuration not stated),-0.26,x
C=CCN(CC=C)C(C)C(=O)Nc1cc2oc3ccccc3c2cc1OC (configuration not stated),x,0.5
CCOc1ccc(S(=O)(=O)NCCSc2ccccc2)cc1,-0.02,-0.75
FC(F)(F)/C(=N\P(=S)(N1CCOCC1)N1CCOCC1)N1CCOCC1,x,0
CCc1ccc(C(=O)Nc2cc(C)nn2-c2nc3ccccc3s2)cc1,-0.69,0.9
